MenB inh = M. tuberculosis MenB inhibitors, primary screen, biochemical, absorbance | 100,000 tested, 0.43% active | inhibition, %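 (about 12 µg/mL by stock and volumes)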 | MenB enzyme assay, absorbance read-out; some hits fall short of the stated cut | AID 540299, 2011 | 1,4-dihydroxy-2-naphthoyl-CoA synthase (Mycobacterium tuberculosis (strain ATCC 25618 / …;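 active = mean of two replicates above 30%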;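 note: 0% = no compound and 100% = wells with inactive enzyme; the first replicate is given; strong numbers were not always called active; inactives centre near -10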
Target sequence (P9WNP5 whole entry, looked up): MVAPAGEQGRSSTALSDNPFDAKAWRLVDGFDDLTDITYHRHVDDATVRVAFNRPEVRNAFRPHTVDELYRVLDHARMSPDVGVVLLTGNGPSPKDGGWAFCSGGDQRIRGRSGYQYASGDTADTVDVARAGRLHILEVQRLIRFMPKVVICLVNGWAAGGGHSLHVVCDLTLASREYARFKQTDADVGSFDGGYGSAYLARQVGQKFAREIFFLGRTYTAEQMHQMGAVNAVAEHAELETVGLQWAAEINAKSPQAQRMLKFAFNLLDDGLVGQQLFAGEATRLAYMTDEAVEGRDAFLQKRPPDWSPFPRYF
Polio RdRp inh = poliovirus RdRp elongation inhibitors, primary screen, biochemical, fluorescence polarization, total intensity; AID 588519, 2011; 150,000 tested, 0.66% active; % elongation, % (compound at 16.7 µg/mL); Genome polyprotein (Poliovirus type 1 (strain Mahoney)), P03300; poliovirus polymerase elongation; stronger effect = lower value; in the data active = % elongation below about 90%; note: some results filed as inactive read as strong as hits
Target sequence (P03300 1749-2209 limits assumed): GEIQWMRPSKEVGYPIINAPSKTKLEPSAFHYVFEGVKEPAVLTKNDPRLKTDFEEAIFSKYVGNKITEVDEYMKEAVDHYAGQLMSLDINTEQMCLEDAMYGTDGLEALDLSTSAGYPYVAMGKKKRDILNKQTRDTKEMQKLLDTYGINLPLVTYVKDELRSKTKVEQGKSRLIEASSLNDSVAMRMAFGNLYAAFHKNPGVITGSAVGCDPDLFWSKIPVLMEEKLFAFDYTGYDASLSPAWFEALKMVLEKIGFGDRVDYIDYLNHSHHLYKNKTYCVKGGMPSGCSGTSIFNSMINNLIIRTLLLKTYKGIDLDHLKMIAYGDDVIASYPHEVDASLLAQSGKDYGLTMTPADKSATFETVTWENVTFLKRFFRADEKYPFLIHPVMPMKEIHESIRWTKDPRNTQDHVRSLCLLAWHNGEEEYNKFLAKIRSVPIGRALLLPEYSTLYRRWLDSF
MbtI inh = MbtI salicylate synthase inhibitors, primary screen, biochemical, fluorescence intensity. 100,000 tested, 0.89% active. P9WFX0. inhibition, %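 (about 17 µg/mL by stock and volumes)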. purified MbtI enzyme, fluorescence intensity read-out;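 active = above 50% in both replicates, above 80% if mildly self-fluorescent; inactive = the rest, strongly fluorescent compounds included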;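 note: 0% = mean of negative and 100% = mean of positive controls; one replicate is shown; some compounds called inactive have numbers as strong as hits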
Polio RdRp inh intensity = second read-out of Polio RdRp inh, no call of its own (marks repeat the call); % elongation; measured here: total intensity read-out; formula for this scale not given here;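 total fluorescence in place of polarization; lower means less elongation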
* = called active by the depositor; i = inactive; . = not tested or not shown; & = joins results of further samples.

The line under a structure holds: MbtI inh | Polio RdRp inh intensity | Polio RdRp inh | MenB inh
1: N#CCOc1nc(C(F)(F)F)nc2c1cnn2-c1ccccc1
  -106 | 230 | 72 | -9
2: Cc1cc(NC(=O)NC(=O)c2csnn2)no1
  -11 | 100 | 98 | 5
3: Cc1ccc2nc(C(=O)O)c(C(=O)O)nc2c1
  0 | 101 | 99 | -6
4: CN(C)c1ccc2sc(=S)[nH]c2c1
  57 | 97 | 101 | -22
5: NC(=O)C1CN(C(=O)CN2CSCC2=O)c2ccccc2O1 (stereo not drawn)
  -9 | 112 | 104 | -14
6: O=C(c1nc(-c2ccc(Cl)cc2)n2c1CCCCC2)N1CCCCCC1
  -14 | 108 | 102 | -19
7: O=c1[nH]c(-c2ccc3c(c2)OCO3)nc2ccccc12
  i | 102 | 99 | -15
8: CCN1Cc2ccccc2CC1C(=O)O (stereo not drawn)
  1 | 103 | 104 | -52
9: COc1cc(/C=C(\C#N)C(=O)N2CCOCC2)cc(OC)c1OC
  4 | 103 | 102 | 19
10: O=C(O)C12CC3CC(C1)CC(n1ncc(NCCc4ccccc4)c(Cl)c1=O)(C3)C2
  5 | 98 | 102 | 2
11: CSc1ccc(/C=C(\C#N)C(=O)C(C)(C)C)cc1
  -15 | 106 | 101 | -66
12: CCN1CCCC1CNC(=O)C1c2ccccc2C(=O)N(C)C1c1ccc(OC)cc1 (stereo not drawn)
  -4 | 103 | 100 | -3
13: O=C(CSc1nc(C2CC2)n(-c2ccccc2)n1)Nc1cc2[nH]c(=O)[nH]c2cc1Br
  -6 | 110 | 103 | -11
14: COc1cc2cccc(OC)c(=O)c2c(O)c1OC
  -6 | 94 | 100 | -21
15: COc1cc2c(cc1OC)C(C)N(S(=O)(=O)c1ccc(-c3ccccn3)s1)CC2 (stereo not drawn)
  -3 | 109 | 106 | -12

Reprinted from the part before: three entries, then new ones.
The line under a structure holds: MbtI inh | Polio RdRp inh intensity | Polio RdRp inh | MenB inh
13: O=C(CSc1nc(C2CC2)n(-c2ccccc2)n1)Nc1cc2[nH]c(=O)[nH]c2cc1Br
  -6 | 110 | 103 | -11
14: COc1cc2cccc(OC)c(=O)c2c(O)c1OC
  -6 | 94 | 100 | -21
15: COc1cc2c(cc1OC)C(C)N(S(=O)(=O)c1ccc(-c3ccccn3)s1)CC2 (stereo not drawn)
  -3 | 109 | 106 | -12
16: COC(=O)c1cnc(Nc2cc(OC)ccc2OC)c2ccccc12
  14 | 101 | 100 | -10
17: Nc1c(C(=O)c2ccccc2)sc2snc(SCC(=O)c3ccccc3)c12
  . | 245 | 65 | -18
18: CCC1Sc2ccc(S(=O)(=O)CCC(=O)Nc3ccccc3C)cc2NC1=O (stereo not drawn)
  -10 | 99 | 100 | -4
19: CC(C)(C)NC(=O)C12CC3CCC(CC(C3)C1)C2
  12 | 103 | 102 | 5
20: Cc1cc(NC(=O)COC(=O)C(C)N2C(=O)C3CC=CCC3C2=O)no1 (stereo not drawn)
  3 | 109 | 103 | -26
21: COc1ccc2c(c1)nc(COc1ccccc1)n2C
  7 | 102 | 100 | -22
22: O=C1c2ccccc2C(=O)N1Cc1nc2ccc(Br)cn2c1NC1CCCCC1
  -13 | 99 | 100 | -19
23: O=C(CCCN1C(=O)c2ccccc2C1=O)NC1CCCC1
  . | 100 | 106 | -4
24: O=C(O)c1ccc2c3ccc(C(=O)O)c4c(C(=O)O)cc5c(c6c(cc(C(=O)O)c1c26)S5(=O)=O)c43
  -30 | 239 | 43 | -228
25: O=C(C1CC1)n1cc(C(=S)N2CCOCC2)c2ccccc21
  14 | 101 | 101 | 0
26: COC(=O)c1sccc1NN1C(=O)c2ccccc2C1=O
  -13 | 118 | 105 | -1
27: Brc1cccc(-c2noc(Cc3ccccc3)n2)c1
  0 | 102 | 101 | 15
28: COC(=O)c1cc(Cl)cc(Cl)c1O
  -96 | 100 | 98 | 3
29: CCOC(=O)Nc1ccc2c(COC(=O)c3nc4nc(C)ccn4n3)cc(=O)oc2c1
  125 | 107 | 104 | -7
30: Cc1cccc(NC(=O)CSc2sc3c(=O)[nH]c(=O)[nH]c3c2C#N)c1
  12 | 103 | 103 | 13

The list goes on; it opens with the 6 that closed the last part.
The line under a structure holds: MbtI inh | Polio RdRp inh intensity | Polio RdRp inh | MenB inh
25: O=C(C1CC1)n1cc(C(=S)N2CCOCC2)c2ccccc21
  14 | 101 | 101 | 0
26: COC(=O)c1sccc1NN1C(=O)c2ccccc2C1=O
  -13 | 118 | 105 | -1
27: Brc1cccc(-c2noc(Cc3ccccc3)n2)c1
  0 | 102 | 101 | 15
28: COC(=O)c1cc(Cl)cc(Cl)c1O
  -96 | 100 | 98 | 3
29: CCOC(=O)Nc1ccc2c(COC(=O)c3nc4nc(C)ccn4n3)cc(=O)oc2c1
  125 | 107 | 104 | -7
30: Cc1cccc(NC(=O)CSc2sc3c(=O)[nH]c(=O)[nH]c3c2C#N)c1
  12 | 103 | 103 | 13
31: CCC(=O)NC1=NC(=O)/C(=C/c2cn(C(=O)CC)nc2-c2ccccc2)S1
  -8 | 143 | 120 | -35
32: CCOc1ccc(CC(=Nc2ccccc2O)C2=C(O)CC(C)(C)CC2=O)cc1OCC
  . | 102 | 107 | 8
33: Cc1csc2nc(SCC(=O)NCc3ccccc3)[nH]c(=O)c12
  -5 | 101 | 101 | -18
34: CCCSc1ncc(CO)n1Cc1ccccc1
  -27 | 103 | 100 | -7
35: Cn1c(NCCO)nc2ccccc21
  -6 | 110 | 102 | .
36: CCC(CC)NCC(=O)Nc1cc2oc3ccccc3c2cc1OC
  0 | 101 | 105 | -28
37: Cc1nn(CCCC(=O)NCCN2CCOCC2)c(=O)c2c1sc1ccccc12
  77 | 102 | 104 | -8
38: CCOC(=O)C1=C(C)Nc2ccccc2N=C1NC(=O)CCNC(=O)c1ccco1
  10 | . | . | 0
39: CCCCC/C=C\C/C=C\C/C=C\C/C=C\CCCC(=O)O[C@H](COCCCCCCCCCCCCCCCC)COP(=O)([O-])OCC[N+](C)(C)C
  -3 | 101&100 | 102&100 | -7
40: O=C(Oc1nsnc1N1CCCCC1)N(c1ccccc1)c1ccccc1
  23 | 107 | 103 | -26
41: CCOC(=O)c1c(C)n(C)c2ccccc12
  . | 103 | 108 | -16
42: N#CC(C(=O)Nc1ccc(Cl)c(Cl)c1)=C1Nc2ccccc2N1
  -3 | 101 | 101 | -19
43: CSc1nnc(COc2ccc(C(C)C)cc2)o1
  -3 | 101 | 100 | -54
44: Cn1c(=O)c(=O)n(C)c2cc(S(=O)(=O)CCC(=O)NC3CCCCCCC3)ccc21
  5 | 103 | 103 | 9
45: O=C(OCc1ccc(Cl)cc1Cl)c1ccncc1
  7 | 101 | 98 | 4

In another format: entries from further up.
no.	Molecule	MbtI inh	Polio RdRp inh intensity	Polio RdRp inh	MenB inh
40	O=C(Oc1nsnc1N1CCCCC1)N(c1ccccc1)c1ccccc1	23	107	103	-26
44	Cn1c(=O)c(=O)n(C)c2cc(S(=O)(=O)CCC(=O)NC3CCCCCCC3)ccc21	5	103	103	9

(listing goes on)
The line under a structure holds: MbtI inh | Polio RdRp inh intensity | Polio RdRp inh | MenB inh
46: CC(C)CNc1cc(NCCO)c2c3c(onc13)-c1ccccc1C2=O
  -5 | 106 | 101 | -11
47: O=C(O)CCc1ccc(-c2cccs2)n1-c1cccc(O)c1
  -54 | 101 | 103 | -4
48: CN(C)C(=O)c1ccccc1NS(=O)(=O)c1ccc(Br)cc1
  1 | 104 | 102 | .
49: CCOC(=O)C1C(=O)C=C(c2ccco2)CC1c1ccc(C)cc1 (stereo not drawn)
  13 | 97 | 104 | -31
50: O=C1C=C(NCCc2ccccc2)CC(c2ccco2)C1 (stereo not drawn)
  -1 | 105 | 103 | -5
51: COC(CNS(=O)(=O)c1ccc2c(c1)c(=O)n(C)c(=O)n2C)OC
  -8 | 104 | 101 | 4
52: Cc1ccc(-n2nnc(-c3ccc(Cl)cc3)n2)cc1
  -4 | 99 | 100 | -1
53: COc1ccc(C(=O)OCC(=O)NC2(C#N)CCCC2)cc1F
  -13 | 93 | 100 | -28
54: CC(Sc1nc(-c2ccccc2)cc(C(F)(F)F)n1)C(=O)NCCCn1ccnc1 (stereo not drawn)
  1 | 101 | 100 | -7
55: CC(C)NC(=O)C1CC(=O)N(c2ccc(Oc3ccccc3)cc2)C1 (stereo not drawn)
  -7 | 102 | 101 | 28
56: Cc1ccc2[nH]c(=O)c3cc(C(=O)N4CCc5ccccc54)sc3c2c1
  8 | 105 | 102 | 9
57: CCc1ccc(C=C2C(=O)OC(C)(C)OC2=O)o1
  13 | 98 | 99 | -225
58: C=CCOC1=NC2C(C(=O)N(C)C(=O)N2C)N1C (stereo not drawn)
  . | 88 | 98 | -20
59: Cc1nc2cc(Cl)ccc2n1CO
  -1 | 101 | 104 | 9
60: COc1ccccc1/C=C/c1ccccc1OC
  109 | 106 | 105 | -8
61: COc1ccc(C(=O)OCC(=O)N2CC3(C)CC2CC(C)(C)C3)cc1 (stereo not drawn)
  -21 | 100 | 101 | -20
62: CN(CC(=O)NC1CCCCCC1)c1nnc(N2CCCC2=O)s1
  -17 | 103 | 101 | -8
63: S=C1NC2=C(C(c3ccccc3)N1)N1CCC2CC1 (stereo not drawn)
  -2 | 106 | 102 | -22
64: COc1ccc(C2(C(=O)O)CCOCC2)cc1
  1 | 100 | 104 | 8
65: O=C(NCc1ccco1)c1nc(-c2cccc(F)c2)n2c1CCCCC2
  -30 | 102 | 102 | -18
66: COc1ccc(CN(C)C(=O)c2cnc(OC)cc2C(F)(F)F)c(OC)c1
  -14 | 95 | 102 | -13
67: CCOC(=O)N1CCC(=NNc2nc3ccccc3[nH]2)CC1
  2 | 104 | 107 | 1
68: O=C(COc1nsnc1N1CCOCC1)c1ccccc1
  3 | 99 | 97 | 10
69: Cc1ccc(C(=O)/C=C2/CC(c3ccccc3)NCCN2)c(O)c1 (stereo not drawn)
  . | 113 | 104 | -4
70: CCn1cc(C(=O)O)c(=O)c2cc(F)c(NN3C(=O)CSC3c3ccccc3Cl)cc21 (stereo not drawn)
  . | 133 | 123 | -15
71: O/N=C/c1ccccc1Br
  15 | 109 | 101 | 12
72: Nc1cc(N)nc(SCC(=O)c2ccccc2)n1
  10 | 104 | 100 | -32
73: FC(F)Oc1ccc(-c2cn3c(n2)sc2ccccc23)cc1
  -7 | 107 | 107 | -11
74: NCCc1cnn(-c2ccccc2)c1
  -5 | 100 | 106 | -53
75: Cc1noc(C)c1COC(=O)c1cccc(S(=O)(=O)N2CCCCC2)c1
  36 | 104 | 102 | -30
76: CCCN(CCC)Cc1c(C(=O)N/N=C/c2ccoc2)nnn1-c1nonc1N
  8 | 99 | 104 | -25
77: O=S(Cc1ccccc1)c1ccccc1 (stereo not drawn)
  7 | 99 | 101 | -18
78: Cc1cc(SCC(=O)NC(C)(C#N)C(C)C)nc2ccccc12 (stereo not drawn)
  33 | 106 | 105 | -6
79: CC(NCc1ccccc1O)c1ccccc1 (stereo not drawn)
  0 | 106 | 102 | 1
80: Cc1ccc(SCC2=NNC(=O)C2)cc1
  -4 | 97 | 99 | -43
81: CCOC(=O)c1sc(NC=O)c(C(=O)OCC)c1C
  . | 104 | 102 | 4
82: CSc1nc(NCCOC(=O)c2ccco2)c(C#N)c(-c2ccc(C(C)(C)C)cc2)n1
  16 | 96 | 101 | 11
83: CCOC(=O)c1[nH]c(COC(=O)CCc2ccccc2)c(C(=O)OCC)c1C
  6 | 99 | 101 | 4
84: O=S(=O)(N=S(N1CCOCC1)N1CCOCC1)c1ccccc1
  -1 | 100 | 99 | -7
85: COc1cccc(NC(=O)CSc2nnc3scc(-c4ccccc4)n23)c1
  12 | 102 | 103 | 8
86: COC(CN(Cc1nc(N)nc(Nc2ccc(C)cc2)n1)Cc1nc(N)nc(Nc2ccc(C)cc2)n1)OC
  0 | 108 | 107 | -48
87: O=C(/C=C/c1cccs1)Nc1ccccc1N1CCCCC1
  -10 | 101 | 101 | .
88: C=CCN(CC=C)CC(O)Cn1c(-c2ccc(OC)cc2)cc2ccccc21 (stereo not drawn)
  109 | 106 | 103 | -42
89: CN(c1ccc(O)cc1)c1nc(-c2cccnc2)cs1
  . | 113 | 105 | -2
90: NC(=O)CN1C2CCC1CC(NC(=O)C1CC1)C2 (stereo not drawn)
  -6 | 105 | 99 | 14
91: Cc1ccc(C)n1-c1c(C)n(C)n(-c2ccccc2)c1=O
  -1 | 111 | 103 | 0

Entries from the list above that contain a tert-butyl group, in the order listed:
The line under a structure holds: MbtI inh | Polio RdRp inh intensity | Polio RdRp inh | MenB inh
11: CSc1ccc(/C=C(\C#N)C(=O)C(C)(C)C)cc1
  -15 | 106 | 101 | -66
19: CC(C)(C)NC(=O)C12CC3CCC(CC(C3)C1)C2
  12 | 103 | 102 | 5
82: CSc1nc(NCCOC(=O)c2ccco2)c(C#N)c(-c2ccc(C(C)(C)C)cc2)n1
  16 | 96 | 101 | 11

Screening data from PubChem.

This is a random part of the collection. Share with any hit: about 1.8%.
